Vaccinia Venus: inhibitors of vaccinia virus (Venus reporter) | Vaccinia virus Venus reporter expression, fluorescence | Potency, µM (doses to about 36.5 µM), for the others: at the highest dose activity change, negative = inhibition, most hits filed as inhibitors | 330,000 tested, 0.46% active | AID 720580; active means well fitted inhibition curve with a large enough effect; inconclusive means small, poorly fitted or top-dose-only effect; inactive means no such curve, though single readings can be large or run the other way; tested in A549 cells; further: nearly all actives have a fitted effect of over 30% in size; inactives centre near -10
Vaccinia mCherry: vaccinia inhibition (mCherry reporter); Vaccinia virus mCherry reporter infection, fluorescence; about a quarter of the inactives have no number; Potency, µM (doses to about 36.5 µM), inactives show at the top dose activity change, negative = inhibition, usual class: inhibitors; 310,000 tested, 0.63% active; active = well fitted inhibition curve with a large enough effect; inconclusive = small, poorly fitted or top-dose-only effect; inactive = no such curve, though single readings can be large or run the other way; tested in A549 cells; further: nearly all actives have a fitted effect of over 35% in size; inactives centre near -10
An asterisk follows results filed as active; i = inactive; ? = inconclusive; nt = no result given; [ ] = remark or other dose. On the % scale 0 is the no-effect control and ±100 the full control effect; potency means the concentration at half of the fitted maximal effect.

compound	Vaccinia Venus	Vaccinia mCherry
CCOC(=O)C1CCCN(c2nc3ccccc3nc2NS(=O)(=O)c2ccc(C)cc2)C1 (stereo not drawn)	-11.0%	i
COc1cc(OC)c2c(C)c(CC(=O)NCc3ccccc3OC)c(=O)oc2c1	8.9%	-0.5%
CCOc1ccc(NC(=O)C2CCCN(S(=O)(=O)c3ccc4[nH]c(=O)ccc4c3)C2)cc1 (stereo not drawn)	7.7%[7.34 µM]	-11.0%[7.34 µM]
CCCCN(C)S(=O)(=O)c1ccc(C(=O)N=c2sc3cc(NC(C)=O)ccc3n2C)cc1	-16.8%	-10.3%
CCOc1ccc(C(CC(=O)O)NC(=O)COc2ccccc2OC)cc1OC (stereo not drawn)	5.2%	10.2%
Cc1cc(F)ccc1NC(=O)C1CCN(C(=O)c2cnn(-c3ccccc3)c2-n2cccc2)CC1	-4.3%	-10.7%
NC(CC(=O)NC(c1ccccc1)(c1ccccc1)c1ccccc1)C(=O)O (stereo not drawn)	3.3%	-2.8%
Cc1cc(-c2nn(-c3ccccc3)cc2/C=C2\SC(N)=NC2=O)ccc1OC(C)C	-4.6%	i
Cc1cn(CC(=O)NCc2nc3ccccc3[nH]2)c(=O)[nH]c1=O	14.2%	44.7%[activator]
COc1cc(Nc2nc3c(S(=O)(=O)c4ccccc4)nnn3c3ccc(Cl)cc23)cc(OC)c1	-9.4%	-8.6%
CCN(CC)P(=O)(Nc1ccc([N+](=O)[O-])cc1)c1c(C)nn(CCC#N)c1NC(=O)c1ccc(Cl)cc1Cl (stereo not drawn)	?	?
CCCN(CC(=O)Nc1ccccc1C)C(=O)c1cnc(C)cn1	-2.3%	-10.1%
NC(=S)N/N=C/c1c(O)c(Br)cc2oc3c(c12)CCCC3	-10.3%	?
O=C(Nc1nc(-c2ccccc2)cs1)Nc1ccc(F)cc1F	-12.2%	-26.9%
Cc1ccc(Cl)cc1N1CCN(C(=O)c2ccc3c(c2)N(Cc2ccc(F)cc2)CCS3)CC1	-13.9%	-21.2%
COc1ccc(C2NC(=O)NC(O)(C(F)(F)F)C2C(=O)c2ccc(C)cc2)cc1 (stereo not drawn)	-22.9%	-27.1%
CC(C)C[C@@H](CN1CCC[C@@H]1CN1C(=O)C(=O)NC[C@@H]1Cc1ccccc1)N1C[C@H](Cc2ccc(O)cc2)N(CCc2ccccc2)C(=O)C1=O	1.0%	i
Cc1cc(C)cc(OCc2ccc(C(=O)Nc3ccccc3F)o2)c1	-11.0%	-7.6%
COc1ccccc1Oc1nc2c(c(=O)n(C)c(=O)n2C)n1Cc1cccc(Br)c1	-7.4%	-16.7%
CCCN1CNc2c(c(=O)[nH]c(=S)n2CCc2ccc(OCC)c(OCC)c2)C1	-19.6%	i
CC(=O)c1ccc(N2CCN(S(=O)(=O)c3cccc4nsnc34)CC2)cc1	-21.2%	i
O=C(COC(=O)CCC(=O)c1ccc(F)cc1)Nc1ccc(N2CCOCC2)cc1	-1.7%	nt
NC(=O)Cn1c(O)c(N=NC(=O)CNC(=O)/C=C/c2ccccc2)c2ccccc21	7.7%[7.34 µM]	-5.1%[7.34 µM]
COc1ccc2oc(C(=O)NC(C)c3ccccn3)c(C)c2c1 (stereo not drawn)	-3.5%	i
COC(=O)CNC(c1ccccc1)c1cc(Br)ccc1NC(=O)CNC(=O)OCc1ccccc1 (stereo not drawn)	-29.3%	?
O=C(Nc1ccc(Br)cc1)c1ccc(N2C(=O)C3CCCCC3C2=O)cc1 (stereo not drawn)	-15.6%	-7.3%
CCC(CC)c1nnc(NC(=O)c2c(-c3ccccc3)noc2C)s1	-0.8%	6.1%
COc1ccc(CN(C(=O)c2ccco2)c2ccc(C)c(C)c2)cc1	-17.5%	-20.3%
COc1cccc(-n2c(COc3ccc(C)cc3)nnc2SCC(N)=O)c1	0.1%	-11.5%
CCn1c(CNC(=O)c2ccco2)nnc1SCCOc1ccccc1	5.4%	7.5%

The list goes on.
compound	Vaccinia Venus	Vaccinia mCherry
N#Cc1cc2cc(Cl)ccc2[nH]c1=O	0.4%	-0.2%
CCCOc1cccc(C2c3c(oc4ccccc4c3=O)C(=O)N2c2nncs2)c1 (stereo not drawn)	?	?
CC(=O)N1CCCc2cc(S(=O)(=O)N3CCC(C(=O)NCc4ccc(C)cc4)CC3)ccc21	1.4%	7.0%
Cc1ccc(S(=O)(=O)Nc2ccccc2-c2ccccc2NS(=O)(=O)c2ccc(C)cc2)cc1	-29.3%	nt
CC(C(=O)NC(C)(C)C)n1c(-c2ccc3c(c2)OCO3)nc2ccccc21 (stereo not drawn)	4.1%	-1.6%
CN(C)C1C(=O)C(C(N)=O)=C(O)[C@@]2(O)C(=O)C3=C(O)c4c(O)ccc(Cl)c4C(O)[C@H]3C[C@@H]12 (stereo partly drawn)	-9.6%	i
Cc1cccc(Cn2c(=O)n(-c3ccc(CC(=O)NCc4ccco4)cc3)c(=O)c3sccc32)c1	-26.6%	?
Cc1cc(NS(=O)(=O)c2ccc(NC(=O)Nc3cccc(C(F)(F)F)c3)cc2)no1	0.1%	i
FC(F)Oc1ccc(NC(=S)NC23CC4CC(CC(C4)C2)C3)cc1	-22.4%	-2.8%
CN1C(=O)CS(=O)c2ccc(C(=O)NC3CC3)cc21 (stereo not drawn)	6.6%	-0.1%
CN(C(=O)COC(=O)c1cc(-c2ccccc2Cl)nc2ccccc12)C1CCS(=O)(=O)C1 (stereo not drawn)	-15.1%	-1.9%
CCCNC(=O)C1(C)CCCN(Cc2c3ccccc3nn2C)C1 (stereo not drawn)	5.6%	i
CCNC(=O)c1ccc2c(c1)nc1n2CCCCC1	-5.6%	-12.2%
O=C(CNC(=O)c1ccccc1F)Nc1ccncc1	3.3%	-11.5%
CC(=O)Nc1ccc(N(C(=O)CNC(=O)c2cccs2)C(C(=O)NC(C)(C)C)c2ccccc2)cc1 (stereo not drawn)	-3.9%	-12.8%
Cc1ccc(-n2ncc3c(=O)n(Cc4cccnc4)cnc32)cc1	-19.6%	-29.8%
COc1cccc(OCc2cc(C(=O)NCCN3CCCCC3CO)no2)c1 (stereo not drawn)	-15.6%	i
CN=C(Nc1cccc(OC)c1)SC1CC(=O)N(c2ccc(C(=O)O)cc2)C1=O (stereo not drawn)	-16.6%	-10.8%
Cn1ncc2c(N)nc(NCCO)nc21	-3.1%	-14.7%
COc1ccc(S(=O)(=O)N2CCC(C(=O)N[C@@H](C)C(=O)NC3CC3)CC2)cc1	-18.5%	i
O=C(c1ccccc1C(=O)N(c1ccccc1)c1ccccc1)N1CCCCC1	-8.2%	i
COC(OC)C1(CCc2ccccc2)NC(=O)NC1=O (stereo not drawn)	4.5%	-1.3%
CC(=O)N1CCCC1c1nc2ccccc2n1Cc1cc(C)ccc1C (stereo not drawn)	-4.1%	i
O=C(NCCc1csc(-c2cccnc2)n1)c1cccc(Cl)c1	-5.3%	-18.2%
CCn1cc(CN2CCN(CCc3ccccc3)C(CCO)C2)c(C)n1 (stereo not drawn)	7.6%	i
COc1ccc(N(CC(=O)Nc2cccc(N(C)S(C)(=O)=O)c2)S(C)(=O)=O)cc1OC	0.0%	0.0%
Cc1ccc(NC(=O)CCc2ccc(S(=O)(=O)NC3CCCCC3)cc2)cc1	-17.6%	nt
COC(=O)c1ccc(C(=O)OC)nc1	-9.2%	-9.9%
CC1(C)O[C@@H]2[C@H](O1)[C@@H](CO)O[C@H]2n1cnc2c(N)ncnc21	-3.0%	i
O=C(CS(=O)(=O)c1cn(Cc2ccc(Cl)cc2)c2ccccc12)N1CCCCC1	-5.1%	-21.6%

3 compounds out of the list, arranged by SMILES length, rising:
compound	Vaccinia Venus	Vaccinia mCherry
O=C(CNC(=O)c1ccccc1F)Nc1ccncc1	3.3%	-11.5%
O=C(c1ccccc1C(=O)N(c1ccccc1)c1ccccc1)N1CCCCC1	-8.2%	i
Cc1ccc(NC(=O)CCc2ccc(S(=O)(=O)NC3CCCCC3)cc2)cc1	-17.6%	nt

New compounds follow:
compound	Vaccinia Venus	Vaccinia mCherry
O=C(c1cc([N+](=O)[O-])ccc1Cl)N1CCN(c2ccccn2)CC1	-12.2%	i
Cc1ccc(-c2nnc(-c3cccs3)o2)cc1	4.1%	-9.5%
CSc1ccc(Cl)c(C(=O)Nc2cc(S(=O)(=O)N3CCOCC3)ccc2N2CCOCC2)c1	-18.9%	-1.7%
C[C@H](CO)N1C[C@H](C)[C@@H](CN(C)C(=O)Nc2ccc3c(c2)OCO3)Oc2c(NC(=O)c3ccncc3)cccc2C1=O	-2.4%	i
Cc1[nH]n(-c2ccccc2)c(=O)c1N=Nc1ccccc1C(=O)N1CCOCC1	-7.3%	-9.8%
COC(=O)c1ccccc1NC(=O)COc1ccc(S(=O)(=O)N2CCCC2)cc1C	-6.9%	i
CCCCC/C(=N\O)c1c[nH]c2ccccc12	-16.0%	-2.5%
Oc1cccc(Nc2nc(-c3ccccc3)nc3ccccc23)c1	?	?
O=C(NNS(=O)(=O)c1ccc(Cl)cc1Cl)c1cc2ncc(C(F)(F)F)cc2s1	-1.3%	-2.7%
COc1cccc(Nc2ncccc2C(=O)NCc2ccccc2)c1	2.2%	-13.2%
COc1cccc(N2CC(NC(=O)CCCc3ccccc3)CC2=O)c1 (stereo not drawn)	-17.8%[7.34 µM]	-13.6%[7.34 µM]
C=CCNC(=S)NC(=O)c1ccc(C)c(Br)c1	-7.5%	-17.4%
O=c1[nH]cnc2c1ncn2C1CC(O)C(CO)O1 (stereo not drawn)	9.5%	21.1%
CC(NC(=O)CCC(=O)N1CCN(S(=O)(=O)c2ccc(Cl)cc2)CC1)c1ccccc1 (stereo not drawn)	?	-13.0%
CC(C)Oc1ccc(Cc2n[nH]c(=S)n2Cc2ccccc2)cc1Cl	-7.4%	-10.9%
Cc1[nH]c2ccccc2c1C(=O)COC(=O)c1ccccc1SCC(=O)N1CCCC1	-5.2%	4.7%
O=C(Cn1cnc2ccccc21)OCC(=O)N1CCCc2ccccc21	-1.1%	-10.2%
O=C(C1CCC(=O)N(C2CC2)C1)N1CCC(Oc2ccccc2F)CC1 (stereo not drawn)	-4.7%	-5.4%
CCc1ccccc1N(C1=NCCCS1)S(=O)(=O)c1ccc(C(C)(C)C)cc1	-10.6%	i
COc1cccc(NC(=O)CSc2nnc3cc(C)nc(N)n23)c1	-1.9%	-3.9%
Cc1cc(C)cc(C(=O)NCC(=O)OCC(=O)N(C)C2CCS(=O)(=O)C2)c1 (stereo not drawn)	-11.9%	-7.0%
Cc1cccc(-c2noc(CN(C(=O)COc3ccc(Br)cc3C)C(C)C)n2)c1	1.6%	-6.8%
CCOC(=O)N1CCN(C(=O)C(C)c2ccc([N+](=O)[O-])cc2)CC1 (stereo not drawn)	1.1%	-9.1%
C#CCOCCOCCOCCNc1nc(N2CCN(C(=O)[C@H](CCC(=O)O)n3cc([C@@H](N)CCCCN)nn3)CC2)nc(N2CCN(C(=O)[C@H](CCCCN)n3cc([C@@H](N)CC(N)=O)nn3)CC2)n1	3.7%	i
CN1CCN(C(=O)c2cc(S(=O)(=O)Nc3ccccc3F)c(Cl)cc2Cl)CC1	-13.4%	-0.4%
CCCCn1c(=N)n(CC(=O)C(C)(C)C)c2ccccc21	?	nt
Clc1ccc(-c2noc3c2-c2nc(Cc4cccc5ccccc45)sc2CC3)cc1	-3.8%	-9.1%
COc1ccc(S(=O)(=O)N2CCN(c3ccc(F)cc3)CC2)cc1-c1noc(C)n1	0.8%[7.34 µM]	-10.9%[7.34 µM]
Cc1ccc2cc(C#N)c(SCC(=O)N3CCCc4ccccc43)nc2c1	-5.7%	-11.8%
COc1ccc(/C=C/C(=O)Nc2ccccc2C(F)(F)F)cc1	-6.9%	-12.7%

Part of the list above, field by field.
CCCCn1c(=N)n(CC(=O)C(C)(C)C)c2ccccc21
  Vaccinia Venus: ?
  Vaccinia mCherry: nt
Clc1ccc(-c2noc3c2-c2nc(Cc4cccc5ccccc45)sc2CC3)cc1
  Vaccinia Venus: -3.8%
  Vaccinia mCherry: -9.1%
COc1ccc(S(=O)(=O)N2CCN(c3ccc(F)cc3)CC2)cc1-c1noc(C)n1
  Vaccinia Venus: 0.8%[7.34 µM]
  Vaccinia mCherry: -10.9%[7.34 µM]
Cc1ccc2cc(C#N)c(SCC(=O)N3CCCc4ccccc43)nc2c1
  Vaccinia Venus: -5.7%
  Vaccinia mCherry: -11.8%

New compounds follow:
compound	Vaccinia Venus	Vaccinia mCherry
COc1ccc(/C=C2/SC(=O)N(CCNC(=O)C3CC(=O)N(Cc4ccccc4)C3)C2=O)cc1 (stereo not drawn)	-20.9%	i
Cn1c(SCC(=O)NCC2CCCO2)ncc(C(=O)Nc2ccc(F)cc2)c1=O (stereo not drawn)	-7.2%	-11.6%
CC1(C(=O)NS(C)(=O)=O)CCN1C(=O)Cc1ccc(Cl)cc1Cl (stereo not drawn)	-2.9%	0.3%
Cc1c(/C=C(\C#N)C(=O)Nc2cccc(Cl)c2)c2ccccc2n1Cc1ccccc1Cl	-14.0%	i
CCC(=O)N1CCc2cc(S(=O)(=O)NCCC(=O)NCc3ccccc3OC)ccc21	-12.8%	-12.0%
C=CCN(CC=C)C(=O)CN1C(=O)NC(Cc2c[nH]c3ccccc23)C1=O (stereo not drawn)	5.9%	-14.2%
